# NPR1 antag: antagonists of human natriuretic peptide receptor Npr1 | HEK293 hNpr1 GloSensor cGMP, ANP-stimulated luminescence | AID 1347048 | Potency, µM (top dose mostly 46.3 µM), inactives show at the highest dose activity change, negative = inhibition, hits mostly inhibitors | 76,000 compounds, 1.6% hits; active = well fitted inhibition curve with a large enough effect; inconclusive = small, poorly fitted or top-dose-only effect; inactive = no such curve, though single readings can be large or run the other way;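 further: nearly all actives have a fitted effect of over 60% in size; nearly all hits also lower the signal before the agonist is added; a reference antagonist and vehicle were the controls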
# Target sequence (P16066 whole entry, looked up): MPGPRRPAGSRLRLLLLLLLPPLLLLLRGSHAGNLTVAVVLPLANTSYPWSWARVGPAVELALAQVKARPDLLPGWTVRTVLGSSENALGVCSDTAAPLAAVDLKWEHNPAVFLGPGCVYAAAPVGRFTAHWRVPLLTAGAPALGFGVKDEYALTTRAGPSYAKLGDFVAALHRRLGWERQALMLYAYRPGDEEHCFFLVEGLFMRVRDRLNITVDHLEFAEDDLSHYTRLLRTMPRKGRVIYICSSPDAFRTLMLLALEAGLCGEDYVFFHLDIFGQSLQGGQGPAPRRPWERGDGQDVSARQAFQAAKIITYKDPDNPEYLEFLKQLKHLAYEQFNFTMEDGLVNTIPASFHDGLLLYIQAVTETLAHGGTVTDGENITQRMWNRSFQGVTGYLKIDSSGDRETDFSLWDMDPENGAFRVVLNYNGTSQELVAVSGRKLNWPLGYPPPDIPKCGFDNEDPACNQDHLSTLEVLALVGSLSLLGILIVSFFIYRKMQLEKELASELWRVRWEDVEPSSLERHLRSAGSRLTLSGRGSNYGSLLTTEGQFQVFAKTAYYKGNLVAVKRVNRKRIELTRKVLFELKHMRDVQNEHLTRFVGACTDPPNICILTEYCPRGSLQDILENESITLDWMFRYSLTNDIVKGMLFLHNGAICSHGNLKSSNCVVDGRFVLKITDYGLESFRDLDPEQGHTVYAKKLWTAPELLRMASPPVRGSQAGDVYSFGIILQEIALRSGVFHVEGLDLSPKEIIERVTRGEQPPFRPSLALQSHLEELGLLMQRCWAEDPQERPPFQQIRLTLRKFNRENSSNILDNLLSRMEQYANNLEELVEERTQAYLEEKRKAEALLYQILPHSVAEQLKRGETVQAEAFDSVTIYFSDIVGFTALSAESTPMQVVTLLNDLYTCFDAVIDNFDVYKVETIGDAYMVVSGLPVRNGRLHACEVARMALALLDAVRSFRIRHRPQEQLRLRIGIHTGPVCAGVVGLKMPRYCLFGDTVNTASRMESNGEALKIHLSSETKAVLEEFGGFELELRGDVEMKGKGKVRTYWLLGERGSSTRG
#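 Compound pre-incubated 30 min at room temperature on GloSensor-loaded HEK293 cells stably carrying hNpr1 and the pGS-40F cGMP biosensor. Stimulation uses hNppA at 0.1 nM final; luminescence is taken at baseline and 20 min post-agonist.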
# Active calls of the source: *; ? = inconclusive; [ ] = dose if it differs, or a comment. On the % scale 0 is the no-effect control and ±100 the full control effect; potency means the concentration at half of the fitted maximal effect. These rows are one share of the data, so the mix of outcomes need not match the whole.
Molecule	NPR1 antag
COc1ccc(-c2cc(C(=O)NCc3cc(C)on3)c3c(c2)N(C)CCO3)cc1OC	3%[70.6 µM]
O=C(Cc1ccc(Cl)cc1)N[C@H]1[C@H](O)[C@H](O)C[C@@H]1c1ccc(C(F)(F)F)cc1	-21%[70.6 µM]
COc1ccc(-c2cn(C)c(=O)n3cc(COc4ccccc4)nc23)cn1	0%[70.6 µM]
Cc1noc(C)c1[S+](=O)([O-])N1CCC2(CC1)CC(=O)Nc1ccccc1O2	16%
COc1ccccc1CN1CCCc2nc(C)nc(-c3ccc(O)cc3)c2C1	0%
COCCNC(=O)[C@H]1C[C@H](Oc2ccccc2)CN1C(=O)c1n[nH]c2ccccc12	1%
CCOC(=O)c1ccc(NC(=O)c2c(OCC)cc(=O)n3c2CCCC3)cc1	2%
CC#CCn1cc2c3c(cccc31)[C@H](CC(C)C)N[C@H](C(=O)NCc1ccco1)C2	-10%[70.6 µM]
Cc1nonc1Cc1nc(C2CCOCC2)nn1CC1COCCO1 (configuration not stated)	8%
Cc1ccsc1C(=O)N1CC(Oc2ccc(-c3nc(-c4ccccc4)no3)cc2)C1	4%
CCC(=O)N1CCc2c(C(=O)N3CCN(c4ccccc4Cl)CC3)cccc21	-1%
CN(C)c1cc(N2CCCC(NC(=O)c3ccncc3)C2)ncn1 (configuration not stated)	0%
CS(=O)(=O)N(Cc1cccnc1)C1CN(C(=O)c2ccc3ccccc3n2)C1	-2%
COCC1CN(C(=O)c2cc(Cl)ccc2OC)CC12CCNCC2 (configuration not stated)	5%
O=C([C@@H]1C[C@H](F)CN1S(=O)(=O)Cc1ccccc1Cl)N1CCCCC1	-1%
O=C1CCN(S(=O)(=O)c2ccccc2)CCCN(Cc2ccc3[nH]ccc3c2)CCN1	1%
N#Cc1ccc(CN2CCC23Cc2ccccc2NC3=O)cc1 (configuration not stated)	-10%[70.6 µM]
COc1cccc(Cc2nc(C3CC(=O)N(Cc4ccccc4OC)C3)no2)c1 (configuration not stated)	1%
Oc1ccc(-c2nc(C3CC3)nc3c2CCN(Cc2cccc(F)c2)CC3)cc1	6%
O=C(NCc1ccccc1F)C1CCN(C(=O)c2ncn3c2COC(c2ccccc2)C3)CC1 (configuration not stated)	0%
CC1=NS(=O)(=O)N(Cc2ccccc2)C=C1C(=O)OCc1noc(-c2cccc(F)c2)n1	?
Cc1nonc1OCCNC(=O)C1CCC(=O)N(CCN2CCOCC2)C1 (configuration not stated)	-1%
O=C1N(CCc2ccccc2)c2ccccc2C12CCN(CC1CC1)C2 (configuration not stated)	-11%
CC(C(=O)N1CCc2onc(-c3ccc(F)c(F)c3)c2C1)n1ccnc1 (configuration not stated)	-1%
CCCNC(=O)CC1Sc2ncccc2N(CC)C1=O (configuration not stated)	2%
Cc1cnc(C(=O)N2CCCCCCNC(=O)[C@@H]3C[C@@H](C(=O)N4CCc5ccccc5C4)C[C@@H]32)cn1	-4%
c1ccc(-c2cnc(Nc3cncnc3)c3c2CCO3)cc1	-3%[70.6 µM]
COCCNC(=O)C1CN(c2ccccc2)C(=O)N1 (configuration not stated)	0%[70.6 µM]
COc1ccc(CN2CCc3nc(C(=O)Nc4ccc(Cl)cc4)oc3CC2)cn1	4µM*
Cc1ncsc1C(=O)N1CCC2(CCCN(CC3CCCCC3)C2=O)C1 (configuration not stated)	3%
O=C(NCc1ccc(F)cc1)N1CCC2(CC1)N(CC1CC1)C(=O)CS2=O (configuration not stated)	9%
CCn1ccc2oc(C)c(C(=O)N3CCN(c4cccc(C)c4C)CC3)c2c1=O	0%
COCCOC1CN(C2CCN(C(=O)c3ccc(C)s3)CC2)C12CCCCC2 (configuration not stated)	-1%
CCC(C(=O)NCc1nnc2ccc(-c3ccc(OC)cc3)nn12)c1ccccc1 (configuration not stated)	0%
Cc1cccc(C(=O)N2CC(N(Cc3cccnc3)S(C)(=O)=O)C2)c1	-7%
COc1ccc(OCc2nc(C3CN(C(=O)Cc4ccccc4F)C3)no2)cc1	-18%
Cc1cccc(CC(=O)N(C)CC2CCOCC2)c1	2%
CNC(=O)[C@@H]1C[C@@H](O)CN1C1CCN(C(=O)c2ccccc2)CC1	1%
O=C(N[C@@H]1CCOC[C@H]1Oc1cccc(F)c1)c1ccc(-n2ccnc2)cc1	-6%
COc1cccc(-c2ccc(NC(=O)C3CCCN3C(=O)C3(C)CC3)cc2)c1 (configuration not stated)	-1%

# NPR1 antag, hit marks shown above
Molecule	NPR1 antag
COc1ccc(CN2CCc3nc(C(=O)Nc4ccc(Cl)cc4)oc3CC2)cn1	4µM*

# Among those listed so far, 2 contain a furan ring, fused or not:
Molecule	NPR1 antag
CC#CCn1cc2c3c(cccc31)[C@H](CC(C)C)N[C@H](C(=O)NCc1ccco1)C2	-10%[70.6 µM]
CCn1ccc2oc(C)c(C(=O)N3CCN(c4cccc(C)c4C)CC3)c2c1=O	0%

# New compounds follow
Molecule	NPR1 antag
COc1cccc2c1NC(=O)CC2C(=O)N1CCc2c(nc[nH]c2=O)C1 (configuration not stated)	11%
COc1ccc(C(=O)N2CCC3(CC2)N(C)C(=O)CS3(=O)=O)cn1	5%
COc1ccc(-c2ccc3nc(-c4ccccc4C)oc3c2)c(OC)c1OC	-13%
COc1cccc([S+](=O)([O-])N2CCC3(C2)C(=O)N(Cc2ccccc2)c2ccccc23)c1 (configuration not stated)	20%
Cc1cc(C)n(CCC(=O)N[C@@H]2[C@@H]3CCO[C@@H]3[C@@H]2C2CCCC2)c(=O)n1	3%
Cc1ccc(CNC(=O)c2ccc(-c3nnc4ccc(NC(=O)C5CCC5)cn34)cc2)cc1	-18%
CC(C)CN1C(=O)c2cccn2CC1C(=O)NCCN1CCOCC1 (configuration not stated)	4%
Cc1nn(-c2ccc(C(C)(C)C)cc2)c(C)c1[C@@H]1C=C[C@@H](NC(=O)c2cccs2)C1	-10%[70.6 µM]
COc1ccc(OC)c(CNC(=O)COc2ccc(NC(C)=O)cn2)c1	3%
O=C(c1ccccc1)N1CCCCC12Cc1ccccc1NC2=O (configuration not stated)	2%[70.6 µM]
Cn1cc(CN2CCOC[C@H]2c2ncc(-c3ccc(S(C)(=O)=O)cc3)[nH]2)c2ccccc21	-3%
CCC[C@H]1CN(Cc2snnc2C(C)C)C[C@@H]1NC(=O)COC	0%
Cc1ccc(C(=O)NC2CCN(c3ccc(F)cc3)C2=O)c(C)c1 (configuration not stated)	-1%
Cc1ncsc1CN1CCCCC1c1nc(CCOc2ccc(F)cc2)no1 (configuration not stated)	10µM*
CCc1nc(-c2c3n(c(=O)n(CC(=O)NCc4ccc(F)cc4)c2=O)CCCC3)no1	6%
Cc1cccc(C(=O)N2C[C@@H](F)C[C@H]2C(=O)N2CCc3ccccc3C2)c1	-12%
Cc1nc(N2CCN(C(=O)C(C)Oc3ccccc3)CC2)cc(C(F)(F)F)n1 (configuration not stated)	2%
O=C(c1cccs1)N1CCCN(C(=O)C2CC2)c2ccccc21	7%
COCC(=O)N[C@@H]1CN(Cc2cc(F)c(F)c(F)c2)C[C@H]1CO	11%
Cc1ccc(-c2noc([C@@H]3Cc4nc[nH]c4CN3C(=O)Nc3cccc(F)c3)n2)cc1	?
CC1(C)[C@H](Cc2cc(CN3CCOCC3)on2)C[C@@H]1NC(=O)c1ccnc(Cl)c1	-15%[70.6 µM]
O=C(CN1C(=O)NC(c2ccc(Cl)cc2)C2=C1COC2=O)Nc1ccc(F)c(Cl)c1 (configuration not stated)	?
CCc1ccc(C(=O)N2CCC(n3cnnc3-c3ccccc3)CC2)cc1	-1%
O=C(c1ccc(C(F)(F)F)s1)N1CCCN(c2nnc3ccccn23)CC1	4%
CC(=O)c1ccc(NC(=O)N[C@H]2CO[C@H]3[C@@H]2OC[C@@H]3Nc2nccc(-c3cccs3)n2)cc1	1%
COCCN1CCCCCC(O)c2cc(C(=O)NCCCN3CCCC3=O)ccc21 (configuration not stated)	1%
CC(C)C(=O)N1CCC2(CC1)CC(N(Cc1ccc(F)cc1)C1CC1)CCO2 (configuration not stated)	-24%
CN1C(=O)CS(=O)C12CCN(C(=O)CCCc1ccccc1)CC2 (configuration not stated)	-1%
CCCCN1C(=O)c2ccccc2C(C(=O)NC(C)C)C12CCCCC2 (configuration not stated)	0%
Cc1cn2nnc(C(=O)N3CCC(C(=O)Nc4cccc(C(C)C)c4)CC3)c2c(=O)[nH]1	0%
CC(C)CC(=O)N1CCC2(C1)C(=O)N(C)c1ccccc12 (configuration not stated)	3%
NC(=O)[C@@H]1C[C@@H](O)[C@H](O)[C@@H]2NC(=S)N(CC3CCCCC3)[C@@H]21	5%[70.6 µM]
Cc1nc(C2CCCN(C(=O)C3(C(N)=O)CC3)C2)cc(N2CCCC2)n1 (configuration not stated)	4%
CC(=O)c1ccc(NC(=O)O[C@@H]2CO[C@H]3[C@@H]2OC[C@@H]3NC(=O)NC2CCCCC2)cc1	0%[70.6 µM]
COc1ccc(NC(=O)Nc2ccc(C)n(CC(=O)N3CCCC(C)C3)c2=O)cc1 (configuration not stated)	4%
CCOC(=O)N1CCC(NCc2cccnc2Oc2ccccc2C)CC1	2%
Cn1cc(CN2C[C@H](C(=O)Nc3ccn(C)n3)C[C@@H]2c2cccc(C(F)(F)F)c2)cn1	-7%[70.6 µM]
COc1ccc(CCC(=O)N2CCC3(CC2)CC(C(=O)N2CCOCC2)N(C)C3)cc1 (configuration not stated)	4%
Cc1ccccc1CN1CCN2C(=O)N(C3CCCCC3)C[C@H]2C1	-14%[70.6 µM]
C=CCNC(=O)CN1CC2CC(C1)[C@H]1CCCC(=O)N1C2 (some centres not stated)	-2%

# A draw from above in order of SMILES length, smallest number first:
Molecule	NPR1 antag
CCCNC(=O)CC1Sc2ncccc2N(CC)C1=O (configuration not stated)	2%
COCC1CN(C(=O)c2cc(Cl)ccc2OC)CC12CCNCC2 (configuration not stated)	5%
COc1ccc(-c2cc(C(=O)NCc3cc(C)on3)c3c(c2)N(C)CCO3)cc1OC	3%[70.6 µM]
Cc1ccc(CNC(=O)c2ccc(-c3nnc4ccc(NC(=O)C5CCC5)cn34)cc2)cc1	-18%
Cc1ccc(-c2noc([C@@H]3Cc4nc[nH]c4CN3C(=O)Nc3cccc(F)c3)n2)cc1	?

# Additional structures:
Molecule	NPR1 antag
CC(C)=CC(=O)N1CC[C@H](NC(=O)NC(C)C)[C@H]1C(=O)N[C@H](Cc1c[nH]c2ccccc12)C(N)=O	1%
CCN(CC)C1CCOC2(CCN(C(=O)c3sc(C)nc3C)CC2)C1 (configuration not stated)	11%
CSc1ncc(CN2CCC(n3nccc3NC(=O)Cc3ccccc3)CC2)cn1	0%
CCCNC(=O)Cn1ccn2nc(-c3ccc(F)cc3)c(CO)c2c1=O	-10%
C=CCOC(=O)C1=C(C)N=C2SC=C(CC(=O)NC3CC3)N2C1c1cc(OC)cc(OC)c1 (configuration not stated)	-29%
Cc1ccc2oc(CN3CCCn4nc(C(O)CN(C)C)cc4C3)c(C)c2c1 (configuration not stated)	-2%
Cc1cccc(C(=O)N2CCc3[nH]nc(C(=O)N(C)C)c3C2)c1	-2%
CCn1nccc1C(=O)N1CCCCCCNC(=O)CC1	-14%
COC(=O)c1nc(NC(=O)Cn2nc3c(cc2=O)CCCCC3)sc1C	4%
Cc1ccc(-c2nc(C(=O)NCc3ccc(F)cc3Cl)no2)cc1	5%
COCc1nc(CNC(=O)c2sc3cccc(F)c3c2Cl)no1	-1%
COc1cccc(CN2CCc3nc(N4CCOCC4)[nH]c(=O)c3CC2)c1OC	8%
O=C(Cn1cccc1-c1nc(-c2ccc3c(c2)OCO3)no1)NCc1ccc(F)cc1	-5%
Cc1ccc(-n2cc(CN3CCN(C)C(CCO)C3)cn2)cc1 (configuration not stated)	-6%
CCOc1cc(=O)n2c(c1C(=O)Nc1cc(F)ccc1Cl)CCCC2	5%
COCC1CN(C)CC12CCN(C(=O)Cc1cccc(F)c1)CC2 (configuration not stated)	6%
COc1cccc(CNC(=O)[C@@H]2C[C@@H](O)CN2C2CCN(C(=O)c3ccc4c(c3)OCO4)CC2)c1	0%
Fc1ccc(-c2noc(-c3ncn4c3COC(c3ccccc3Cl)C4)n2)cc1 (configuration not stated)	-7%
O=C(NCC1CCOCC1)c1ccco1	-3%
Cc1ccc(C(=O)N2CCC(Cc3nc(C(C)C)no3)CC2)cc1C	?
CCn1nccc1C(=O)NCCc1ncc(C)n1Cc1ccccc1	9%
CCOc1cc(C(=O)N2CCN(c3cc(-c4ccc(Cl)cc4)[nH]n3)CC2)cc(OCC)c1OCC	-5%
COc1cc(-c2nc(-c3c(C)noc3C)cc3cc(C)oc23)ccn1	5%[70.6 µM]
Cc1cc(C[C@@H]2COC[C@@H]2NC(=O)COc2cccc(C)c2C)on1	2%
c1ccc(C2(c3ccccc3)CCCN(Cc3cscn3)C2)cc1	-12%
COc1cccc(NC(=O)O[C@@H]2CO[C@H]3[C@@H]2OC[C@@H]3Nc2nccc(-c3cccs3)n2)c1	-6%

# Screening results deposited in PubChem BioAssay by National Center for Advancing Translational Sciences (NCATS).
